Screening results (PubChem)
StopGo RLuc – lowers the Renilla signal of an FMDV 2A StopGo reporter. Potency, µM (series often up to 57.5 µM), inactives show at the highest dose signal change, negative = less light. 120,000 compounds, 0.32% hits. AID 1745857. HEK cells with a luciferase reporter of 2A StopGo recoding; active means well fitted falling curve with a large enough effect; inconclusive means small, poorly fitted or top-dose-only effect; inactive means no such curve, though single readings can be large or run the other way; also: nearly all actives have a fitted effect of over 55% in size; overnight with compound
StopGo FLuc – lowers the firefly signal of an FMDV 2A StopGo reporter; HEK cells with a luciferase reporter of 2A StopGo recoding; Potency, µM (doses to about 57.5 µM), for inactives: at the highest dose signal change, negative = less light; 120,000 compounds, 0.23% hits; AID 1745856; active = well fitted falling curve with a large enough effect; inconclusive = small, poorly fitted or top-dose-only effect; inactive = no such curve, though single readings can be large or run the other way; also: nearly all actives have a fitted effect of over 60% in size; overnight with compound
Starred values were filed as active, the others as inactive; ? = inconclusive; & = joins results of further samples; [ ] = dose if it differs, or a comment. % is scaled to controls: 0 for no effect and ±100 for the full control effect; potency is read from the fitted curve at half-maximal effect.

SMILES | StopGo RLuc | StopGo FLuc
CCOC(=O)C1=CN(c2cc(C)cc(C)c2)C=C(C(=O)OCC)C1c1ccc2c(c1)OCO2 | 64%[activator] | 15%
CCCCN(C(=O)CN1CCN(c2ccccc2)CC1)c1c(N)n(CC(C)C)c(=O)[nH]c1=O | -6% | -2%
Cc1ccc(C(=O)NCc2cc(-c3nn(C)c(=O)c4ccccc34)ccc2C)cc1 | ? | ?
CC12CN3CC(C)(CN(C1)C3c1cccs1)C2=O (stereo not given) | -8% | -6%
COc1ccccc1OCCn1c(-c2ccc(Br)cc2)nc2ccccc2c1=O | -4% | -5%
Brc1ccc(CNCCCSc2nnnn2-c2ccccc2)cc1 | -3% | -1%
COc1ccccc1CNC(=O)c1cccc2c1C(=O)N(C1CCCCC1)C2 | 13% | 13%
Cc1c(C)n(-c2ccc(Cl)cc2)c2ncn(CC(=O)NC(C)c3ccccc3)c(=O)c12 (stereo not given) | -16% | -7%
Cc1ccc(C)c(N2CCN(C(=O)c3ccc(CS(=O)c4ccc(Cl)cc4)o3)CC2)c1 (stereo not given) | 13% | 13%
COc1cccc(CNC(=O)CSc2cc(C)[nH]c(=O)n2)c1 | -7% | 13%
CCN1C(=O)COc2ccc(NC(=O)c3cc(=O)c4cc(Cl)ccc4o3)cc21 | -1% | 1%
Cc1ccc(-c2cc(C(=O)O)c3cc(C)ccc3n2)c(C)c1 | ? | -6%
O=C(O)CCNC(=O)c1ccc(N=Nc2ccc(O)c(C(=O)O)c2)cc1 | -13% | -12%[11.5 µM]
CCN1CCN(Cc2c(O)ccc3oc(C)c(C(=O)Nc4ccc(OC)c(Cl)c4)c23)CC1 | -5% | -11%
Cc1ccc(Cn2c(C(=O)NCc3ccccc3Cl)cc3sccc32)cc1 | 9% | -5%
COc1ccccc1OCc1nc(C#N)c(N2CCC(Cc3ccccc3)CC2)o1 | 1% | 13%
Cn1c(=O)[nH]c(=O)c2c1nc(N1CCN(Cc3ccccc3F)CC1)n2Cc1ccccc1F | -6% | -2%
O=C(CNc1ccccc1OC(F)F)N1CCNC1=O | 8% | 29%
Fc1ccc(-c2nc(-c3ccncc3)no2)cc1 | 8% | 195%[activator]
COc1ccc(N2CCN(c3nc(-c4ccccc4F)nc4ccccc34)CC2)cc1 | -9% | -8%
Cc1ccc(NC(=O)/C(C#N)=C/c2cc(C)n(-c3ccc(Br)cc3)c2C)cc1C | 2% | 13%
CCCCC(=O)Oc1ccc2cc(-c3csc(C)n3)c(=O)oc2c1 | -4% | 71%[activator]
Nc1nnc(SCC(=O)Nc2ccccc2Br)s1 | -10% | 23%
Clc1ccc(-c2cn3cc(Cc4ccccc4)sc3n2)cc1 | 7% | 338%[activator]
CC(C)n1ncc2cc(C(=O)NCc3ccc(OCC(F)(F)F)cc3)cnc21 | 4% | 35%[activator]
CCc1ccc(NC(=O)c2sc3nc(C)cc(C)c3c2NC(=O)c2ccccc2OC)cc1 | -3% | 68%[activator]
CNC(=O)c1ccc2c(c1)N=C(C)c1cc(C)ccc1S2 | 52%[activator] | 120%[activator]
Cc1ccc(-n2ccc3nc(N4CCCC4)ncc3c2=O)cc1C | -5% | 139%[activator]
COCCN(Cc1ccc(F)cc1)Cc1cc(=O)n2c3c(sc2n1)CCCC3 | 10% | 12%
COc1ccc(S(=O)(=O)Cc2nnnn2-c2cccc(C(F)(F)F)c2)cc1 | 36%[activator] | 9%
Cc1ccc(C)c(-c2ccc(=O)n(Cc3c(F)cccc3Cl)n2)c1 | -5% | 0%
COCC(C)NC(=O)C1CCN(S(=O)(=O)Cc2ccc(Cl)cc2)CC1 (stereo not given) | 13% | 18%
O=C(Cn1c(=O)n(-c2ccc(Cl)cc2)c(=O)c2oc3ccccc3c21)Nc1ccccc1 | -14% | 40%[activator]
CC(C)OC(=O)C(C(=O)C(F)(F)F)c1cc(NS(=O)(=O)c2ccc3c4c(cccc24)C(=O)N3)ccc1O (stereo not given) | 128%[activator] | -24%
CCCCc1c/c(=N\O)oc2cc3occ(C)c3cc12 | 13% | 4%
CCOc1ccc2nc3cc(N)ccc3c(N)c2c1 | 15% | -16%[11.5 µM]
CCc1ccc(NC(=O)c2cc(S(=O)(=O)N3CCCC(C)C3)cn2C)cc1 (stereo not given) | 8% | 2%
Cn1ccnc1C(NC(=O)Cc1ccc(-c2ccccc2)cc1)c1ccc(Cl)cc1 (stereo not given) | -1% | 20%
CCOC(=O)c1c(NC(=O)c2cc(=O)c3ccc(C)cc3o2)sc(C)c1C | 25% | 0%
CC(=O)N1c2ccc(S(=O)(=O)N3CCCCCC3)cc2CC1C(=O)NCc1cccc(F)c1 (stereo not given) | -6% | -15%
CCCC(C)NC(=O)CN(c1ccccc1)S(=O)(=O)N(C)C (stereo not given) | 22% | 2%
CC(C)(C)c1ccc(-c2oc(NC(=O)CCl)c(C#N)c2-c2ccc(C(C)(C)C)cc2)cc1 | ? | ?
Cc1nn(CCc2nc(-c3ccccc3)cs2)c2[nH]c(=O)cc(C(F)(F)F)c12 | 4% | 5%
Cc1ccc2nc(Nc3ccc(Br)cc3)nc(-c3ccccc3)c2c1 | -5% | -21%
O=S(=O)(NC1=NCN(CCc2ccccc2)CN1)c1ccc(Br)cc1 | -9% | -8%
CCOc1ccc(-c2nc(SCC(=O)NCCOC)c(-c3ccc(OC)c(OC)c3)[nH]2)cc1 | 7% | -5%
COc1ccc(C2=CC(c3cccc(OC)c3)n3nnnc3N2)cc1 (stereo not given) | -7% | 8%
COc1ccc(CCNC(=O)C(=O)NCC(c2ccco2)S(=O)(=O)c2ccccc2)cc1 (stereo not given) | -16% | -14%
CCOc1ccc(OCC)c(NC(=O)C(NS(=O)(=O)c2ccc(Br)s2)c2ccccc2)c1 (stereo not given) | -17% | -5%
CC(C)(C)c1ccc(C(=O)N2CCCCC2CCN2CCCCC2)cc1 (stereo not given) | -13% | -22%
CCc1cccc(CC)c1N(COC)C(=O)Cn1c(C)nc2ccccc21 | 3% | ?
COc1cc(Br)c(C(N)C(=O)O)cc1OC (stereo not given) | -4% | -2%
COc1cccc(OCCSc2nc(C)c(Cc3ccccc3)c(=O)[nH]2)c1 | -7% | 17%
CCOC(=O)c1cc2c(=O)n3ccccc3nc2n(CC2CCCO2)c1=NC(=O)c1ccc(F)cc1 (stereo not given) | 19% | -15%
COc1cccc(NC(=O)c2nn(-c3ccc(C)cc3)c(=O)n(C)c2=O)c1 | 2% | 0%
CC(C)Oc1ccc(CNC(=O)c2cccc(NC(=O)N3CCSc4ncccc43)c2)cc1 | -6% | 0%
Cc1ccc(CNC(=O)Cn2c(=O)n(Cc3ccccc3)c(=O)c3c2c2cc(C)ccc2n3C)cc1 | -2% | -10%
COc1cccc(CNC(=O)c2cc(S(=O)(=O)N3CCCCC3)cn2C)c1 | -2% | -26%
CCOc1ccc(NC(=O)c2c(NC(=O)Cc3ccccc3)sc3c2CCCCC3)cc1 | -1% | -6%
Cc1cc(Oc2cc(C#N)c(C#N)cc2Oc2ccc(Cl)c(C)c2)ccc1Cl | 28% | 0%
The results go on.
SMILES | StopGo RLuc | StopGo FLuc
COc1cccc(OC)c1C(=O)Oc1cc(C)c2c(c1)O/C(=C\c1ccncc1)C2=O | 20% | 16%
c1ccc(C(NCc2cccs2)c2ccccc2)cc1 | -4% | 60%[activator]
C[C@@H](O)[C@H]1C(=O)N2C(C(=O)O)=C(SCCN=CN)C[C@H]12 | 5% | 6%
N#CCCN/N=C/c1ccncc1 | -2% | -1%
Cc1c(-c2ccccc2)oc2c(C(=O)N(C)c3ccccc3)cccc2c1=O | 5% | -17%
COc1cc(C2C(=O)N(C3CCCCCC3)CC(=O)N2CCc2ccccc2)ccc1OC(C)C (stereo not given) | -8% | -19%
Cc1nn(-c2ccc(N3CCCC3)nn2)c(C)c1CCC(=O)NCc1ccccc1F | -4% | 0%
O=C(CN1C(=O)COc2ccc(S(=O)(=O)N3CCCC3)cc21)N1CCN(c2ccc(Cl)cc2)CC1 | 30%[activator] | 6%
CC(=O)Nc1ccc(S(=O)(=O)Nc2nc3ccccc3nc2Nc2cccc3ccccc23)cc1 | 2% | 7%
CCC(C)(C)NC(=O)c1cn(-c2ccccc2)nn1 | 12% | 208%[activator]
Cc1cccc(NC(c2nnc(-c3ccccc3)o2)c2ccc(F)cc2Cl)c1C (stereo not given) | -10% | -21%
CC(C)c1nnc(NC(=O)c2cc(-c3ccncc3)nc3ccccc23)s1 | -1% | -10%
Cc1ccc(NC(=O)NCCc2c(C)nn(C)c2C)c(Cl)c1 | 7% | 9%
O=C(NC1CCCC1)c1ccc2c(c1)N(Cc1ccc(C(F)(F)F)cc1)C(=O)c1ccccc1S2 | -2% | -16%
O=C(O)CSCc1cccc(Br)c1 | 8% | 13%
O=c1[nH]c(=O)n([C@H]2CCCO2)cc1F | 2% | -13%[11.5 µM]
COc1ccc(N2C(=O)CCC2(C#N)c2ccccc2)cc1 (stereo not given) | -11% | -8%
CC1CCCN(CC(=O)Nc2oc3ccccc3c(=O)c2-c2ccc(F)cc2)C1 (stereo not given) | 16% | 22%
Cc1ccc(CNC(=O)CSc2cc(C)[nH]c(=O)n2)cc1 | -8% | -11%
Cc1noc(C(C)C)c1C(=O)OC(C)C(=O)c1c[nH]c2ccccc12 (stereo not given) | 2% | -19%
COc1ccc(S(=O)(=O)Nc2nc3ccccc3nc2Nc2cccc(Br)c2)cc1 | 11% | -4%
OC(CNCc1cccc(Oc2nnnn2-c2ccccc2)c1)c1ccccc1 (stereo not given) | 2% | 2%
O=C1CCCC2=C1C(c1ccc(Cl)cc1)C1=C(CCCC1=O)O2 | 18% | 17%
O=C(COCc1cc(-c2cccs2)on1)NCc1ccccc1Cl | 59%[activator] | -21%
NC(=O)C1CCN(c2nc(-c3cccs3)nc3ccccc23)CC1 | 34%[activator] | 0%
CCOC(=O)NC(CNC(=O)c1ccccc1OC)CC(C)C (stereo not given) | 11% | -1%
CC1(C)[C@@H]2CC[C@@]1(C)C(=O)C2 | -16% | -24%
NC(=O)c1ccc(COC(=O)c2c(F)cccc2F)cc1 | 18% | 115%[activator]
Cn1nc(C(=O)N2CCN(c3ccccc3)CC2)c2ccccc2c1=O | 10% | 23%
CCN(CC)S(=O)(=O)c1ccc2c(c1)nc(CN(C)C(=O)c1cccc(Cl)c1)n2C | -11% | -18%
CCCN(CCC)Cc1csc2c1CCCC2 | 4% | -6%
O=C1COc2ccc(C(=O)COC(=O)c3nn(-c4ccccc4)c(=O)c4ccccc34)cc2N1 | 11% | 15%
CC1=C(C(=O)Nc2ccc(C)c(C)c2)C2(CCCCCC2)OC1=O | 2%&-2% | 23%&-3%
Cc1ccc(N2CC(NC(=O)C3CCCCC3)CC2=O)cc1 (stereo not given) | -7% | -20%
Cc1ccc(C(=O)Nc2onc3c2CCCC3)cc1 | -2% | -84%
O=C(Cn1c(=O)n(Cc2ccc(F)cc2)c(=O)c2sc3ccccc3c21)NCc1ccccc1 | -16% | ?
Fc1ccc(-c2cnc(CN3CCN(c4ccccc4Cl)CC3)o2)cc1 | 3% | 57%[activator]
CC(=O)Nc1ccccc1OCC(=O)NC(C)C | -11% | -3%
COc1ccc(Cl)c(Cn2c(NCCCN(C)C)nc3c2c(=O)n(C)c(=O)n3C)c1 | -8% | 0%
Cc1ccc2oc(-c3ccc(F)cc3)nc2c1 | 21% | 147%[activator]
CCOc1ccc(C(=O)N2CCN(c3oc(-c4ccco4)nc3C#N)CC2)cc1 | -1% | 4%

A second format for 16 compounds above:
SMILES	StopGo RLuc	StopGo FLuc
OC(CNCc1cccc(Oc2nnnn2-c2ccccc2)c1)c1ccccc1 (stereo not given)	2%	2%
O=C1CCCC2=C1C(c1ccc(Cl)cc1)C1=C(CCCC1=O)O2	18%	17%
O=C(COCc1cc(-c2cccs2)on1)NCc1ccccc1Cl	59%[activator]	-21%
NC(=O)C1CCN(c2nc(-c3cccs3)nc3ccccc23)CC1	34%[activator]	0%
CCOC(=O)NC(CNC(=O)c1ccccc1OC)CC(C)C (stereo not given)	11%	-1%
CC1(C)[C@@H]2CC[C@@]1(C)C(=O)C2	-16%	-24%
NC(=O)c1ccc(COC(=O)c2c(F)cccc2F)cc1	18%	115%[activator]
Cn1nc(C(=O)N2CCN(c3ccccc3)CC2)c2ccccc2c1=O	10%	23%
CCN(CC)S(=O)(=O)c1ccc2c(c1)nc(CN(C)C(=O)c1cccc(Cl)c1)n2C	-11%	-18%
CCCN(CCC)Cc1csc2c1CCCC2	4%	-6%
O=C1COc2ccc(C(=O)COC(=O)c3nn(-c4ccccc4)c(=O)c4ccccc34)cc2N1	11%	15%
CC1=C(C(=O)Nc2ccc(C)c(C)c2)C2(CCCCCC2)OC1=O	2%&-2%	23%&-3%
Cc1ccc(N2CC(NC(=O)C3CCCCC3)CC2=O)cc1 (stereo not given)	-7%	-20%
Cc1ccc(C(=O)Nc2onc3c2CCCC3)cc1	-2%	-84%
O=C(Cn1c(=O)n(Cc2ccc(F)cc2)c(=O)c2sc3ccccc3c21)NCc1ccccc1	-16%	?
Fc1ccc(-c2cnc(CN3CCN(c4ccccc4Cl)CC3)o2)cc1	3%	57%[activator]
